Screening results from PubChem.
Hedgehog = Drosophila hedgehog isoform A inhibitors, primary screen, biochemical, plate reader, single concentration (AID 588832) | inhibition, % at 30.3 µM | 8,000 tested, under 10 active | Biochemical plate reader assay, Hedgehog inhibition; stronger effect = higher value; in the data active = inhibition from about 57%;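 also: 0% = neutral control wells and 100% = positive control wells; cholesterol-driven self-cleavage of fly hedgehog protein by fluorescence polarization; read one hour after cholesterol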
* marks the source's active call; other numbers are inactive results. The list is partial; count on the stated rates, not on these rows.

no.	compound	Hedgehog
1	CCC(=O)c1cc(F)c(N2CCN(C(=O)c3ccco3)CC2)cc1C	7
2	Cc1oc(-c2ccccc2F)nc1CS(=O)(=O)CC(=O)N1CCc2ccccc21	0
3	Cn1c(=NC(=O)C2CC2)sc2cc(F)cc(F)c21	8
4	CC(C)=CCOc1ccc2c(C)c(CC(=O)N3C[C@H]4C[C@@H](C3)c3cccc(=O)n3C4)c(=O)oc2c1C	12
5	NC(=O)CSc1cn(Cc2ccc(F)cc2)c2ccccc12	4
6	COCCN1C(=O)c2oc3ccccc3c(=O)c2C1c1ccc(C(=O)OC)cc1 (stereo unspecified)	9
7	COc1ccc(-c2cc(=O)oc3cc(OCC(=O)N4C[C@H]5C[C@@H](C4)c4cccc(=O)n4C5)ccc23)cc1	8
8	Cc1oc2cc3oc(=O)c(CCC(=O)NCc4ccccn4)c(C)c3cc2c1C	9
9	COc1cc(O)cc(O)c1C(=O)/C=C/c1ccccc1	5
10	CCCSc1nnc(N2C(=O)CC(c3ccsc3)C3=C2CCCC3=O)s1 (stereo unspecified)	4
11	Cc1cccc(NC(=O)C2CCCN(S(=O)(=O)c3ccc4[nH]c(=O)ccc4c3)C2)c1 (stereo unspecified)	11
12	COc1cc(OC)c(Nc2cc(C)nc3nc(C)nn23)cc1Cl	17
13	COc1cccc(Cn2nnc(C(=O)NCCc3ccc(Cl)cc3)c2N)c1	9
14	CCc1cccc(NC(=O)C2CCCN2S(=O)(=O)c2ccc3c(c2)CC(C)N3C(C)=O)c1 (stereo unspecified)	20
15	O=C(NCCN1CCOCC1)c1ccc2c(c1)N(Cc1ccccc1)CCS2	-4
16	CC(=O)c1ccc(N2CCN(C(=O)c3ccc(NC4=NC5CS(=O)(=O)CC5S4)cc3)CC2)cc1 (stereo unspecified)	3
17	NC(=O)CC(NSc1ccccc1[N+](=O)[O-])C(=O)O (stereo unspecified)	5
18	COc1ccccc1/C=C/c1onc(C)c1S(=O)(=O)N1CCC(C(=O)NC(C)C)CC1	15
19	O=C(NCc1ccc2c(c1)OCO2)c1nnc(Cc2ccc(Cl)cc2)o1	-20
20	COc1cc(OC)c2c(c1O)OC(c1ccccc1)CC2=O (stereo unspecified)	5
21	CCOC(=O)N1CCN(C(=O)c2nn(C)c3c2CSc2ccccc2-3)CC1	10
22	Cc1cccc2c1cnn2C(=O)CCC(=O)NCC(C)c1ccccc1 (stereo unspecified)	4
23	COc1cc(NC(=O)Cn2ncc3c2-c2ccccc2OC3)cc(OC)c1OC	4
24	CCOC(=O)c1cccc(NC(=O)C2CCCN(c3nnc(N4CCCC4=O)s3)C2)c1 (stereo unspecified)	5
25	Cn1cc(S(=O)(=O)N2CCCC2)cc1C(=O)NCc1ccc(Cl)cc1	11
26	O=C1OC(N2C(=O)CC[C@H]2C(=O)NCC2CCCO2)c2ccccc21 (stereo partly specified)	7
27	CCCCOc1ccc(/C=N/NC(=O)c2nnn(-c3nonc3N)c2CN2CCCCCC2)cc1	0
28	C/C(=N/O)c1ccccn1	10
29	O=C(Nc1ccccc1)N1CCN(Cc2ccc3c(c2)OCO3)CC1	0
30	CC(=O)CCC1C2C(O)C(C(C)C)C(OC(=O)/C=C/c3ccccc3)CC12C (stereo unspecified)	9
31	CC1CCN(S(=O)(=O)c2ccc3c(c2)N(C)C(=O)CC(=O)N3C)CC1	16
32	CCN1CCN(CCNC(=O)CS(=O)(=O)Cc2nc(-c3ccc(C)cc3)oc2C)CC1	2
33	Nc1nonc1-n1nnc(C(=O)N/N=C/c2cc(Cl)ccc2O)c1CN1CCCCCC1	4
34	Cc1ccc(NC(=O)C2CCCN2S(=O)(=O)c2ccc3c(c2)CCC(=O)N3)cc1Cl (stereo unspecified)	17
35	O=C(CCn1c(=O)sc2ccccc21)NCCN1CCOCC1	7
36	O=C(O)[C@H](Cc1ccccc1)N1Cc2ccccc2C1=O	11
37	Cc1ccc(NS(=O)(=O)c2ccc3c(c2)oc(=O)n3C)cc1F	10
38	O=C(C(Cc1ccccc1)n1cccc1)N1CCCCC1 (stereo unspecified)	13
39	Cc1oc2c(C)c3oc(=O)c(CCC(=O)NCCCn4ccnc4)c(C)c3cc2c1C	4
40	O=C(c1ccccc1)N1CCN(c2ccc(NCc3ccc4c(c3)OCO4)cc2)CC1	-2
41	Cc1nnc(NC(=O)CSc2nnc(CNC(=O)c3ccccc3)n2-c2ccccc2)s1	0
42	Cc1c2cnn(CC(=O)NCCN3CCOCC3)c(=O)c2c(C)n1Cc1ccccc1F	5
43	C[C@@H]1CC[C@H](O)/C=C/C(=O)O[C@H](C)CC[C@H](O)/C=C/C(=O)O1	0
44	Cc1c(OCC(=O)NCC2CCC(C(=O)O)CC2)ccc2c3c(c(=O)oc12)CCC3 (stereo unspecified)	2
45	COC(=O)C1=C(C)Nc2nc(-c3ccccc3)nn2C1c1ccc(C)o1 (stereo unspecified)	7
46	COCCCNC(=O)c1ccc(CS(=O)(=O)c2ccc(OC)cc2)o1	20
47	CCOC(=O)CSc1nc2nc(C)cc(C)n2n1	15
48	COc1ccc(C2CC(c3ccc(F)cc3)Nc3nc(N)nn32)cc1OC (stereo unspecified)	9
49	COCCCN1C(=O)C(=O)/C(=C(/O)c2ccc(OC)cc2)C12C(=O)N(C)c1ccccc12 (stereo unspecified)	29
50	CC(C)[C@H](NC(=O)N1c2ccccc2NC(=O)[C@@H]1C(C)C)C(=O)N[C@H](Cc1ccccc1)C(=O)O	9
51	CCC1CCCCN1CCCNC(=O)Cn1ncc2c(C)n(Cc3ccccc3Cl)c(C)c2c1=O (stereo unspecified)	11
52	Cn1c(C(=O)NCc2ccccn2)cc2c(=O)n(C)c3ccccc3c21	8
53	COc1ccc(S(=O)(=O)N2CCN(Cc3ccc4c(c3)OCO4)CC2)c2ccccc12	-4
54	CCOC(=O)c1ccccc1NC1c2ccccc2C(=O)N1C1CCN(C(=O)OCC)CC1 (stereo unspecified)	5
55	O=CNc1ccccc1	7
56	Cc1c(C(=O)OC2CCCC2C)[nH]c2c1C(=O)CCC2 (stereo unspecified)	25
57	CCN1CCN(Cc2nc3c(c(=O)n(C)c(=O)n3C)n2CC(=O)c2ccccc2)CC1	2
58	COc1ccc(NC(=O)C2CCCN(S(=O)(=O)c3cccc4cccnc34)C2)cc1OC (stereo unspecified)	20
59	CCOC(=O)c1[nH]c(C)c(C(=O)NCc2ccco2)c1C	20
60	CC(=O)NCc1ccc2[nH]c(C)cc2c1	5

An excerpt from above in order of SMILES length, low to high.
no.	compound	Hedgehog
60	CC(=O)NCc1ccc2[nH]c(C)cc2c1	5
47	CCOC(=O)CSc1nc2nc(C)cc(C)n2n1	15
40	O=C(c1ccccc1)N1CCN(c2ccc(NCc3ccc4c(c3)OCO4)cc2)CC1	-2

(more compounds)
no.	compound	Hedgehog
61	O=C(Nc1cccc(F)c1)C1C2C=CC3(CN(CCCN4CCOCC4)C(=O)C13)O2 (stereo unspecified)	5
62	Cc1cccc(C2CC(c3ccc(Cl)cc3)Nc3nc(N)nn32)c1 (stereo unspecified)	21
63	COc1ccc(S(=O)(=O)NCc2cn3c(C)csc3n2)cc1F	7
64	O=C1c2ccccc2C(=O)N1c1ccccc1	11
65	Cc1cc(Nc2ccc(C)c(Br)c2)n2nc(C)nc2n1	11
66	COc1ccc(-c2cc(CCCC(=O)N3CCN(c4ccc(OC)cc4)CC3)no2)cc1	6
67	COc1ccc(C(=O)/C=C/c2ccc(OC)cc2OC)c(O)c1	-3
68	COc1ccc(OC)c(NC(=O)COc2cc(O)c3c(c2)OC(C)(C)CC3=O)c1	9
69	Cc1cc(-c2ccccc2)nc2cc(C(=O)NCc3ccco3)nn12	21
70	O=C(NCc1ccccc1)c1nnc(CS(=O)(=O)c2ccccc2)o1	29
71	CC1CCN(c2cc(=O)n(C3CCCCC3)c(=O)[nH]2)CC1	2
72	Cc1ccc(Cn2ccc(NC(=O)c3cc(C(C)C)on3)n2)cc1	4
73	Cc1cc(C)c(NC(=O)Cn2cc3c(n2)CCCC3)c(C)c1	11
74	O=C(NCCN1CCOCC1)c1ccccc1N1C(=O)[C@@H]2Cc3c([nH]c4ccccc34)C(c3ccc(F)cc3)N2C1=O (stereo partly specified)	2
75	CC1CC(C)CN(CCCNC(=O)CCC(=O)N2CC(C)Oc3ccccc32)C1 (stereo unspecified)	7
76	CSCC[C@H](N)C(=O)N1CCC(C(=O)N[C@H](C)C(=O)NC(C)c2ccccc2)CC1 (stereo partly specified)	8
77	CCCCC(CC)C(=O)O (stereo unspecified)	7
78	O=C(Cc1ccccc1)NCCn1ccc2ccccc21	0
79	COc1cc(O)c(C(=O)/C=C/c2ccccc2)c(OC)c1	9
80	Cc1ncc[nH]1	7
81	O=C(Cc1ncn[nH]1)NCCc1ccccc1	5
82	N#CCc1ccc(NS(=O)(=O)c2ccc(N3CCCC3=O)cc2)cc1	17
83	COC(=O)c1cc2c(s1)-c1ccccc1OC2	7
84	Cc1ccc(N(C)C(=O)N2CCN(S(=O)(=O)c3ccc(C)cc3)CC2)cc1	0
85	COc1ccc(-c2nc(CS(=O)CC(=O)NCc3cccnc3)c(C)o2)cc1 (stereo unspecified)	2
86	CCN(Cc1ccccc1)C(=O)Cn1cc2c(n1)CCCC2	10
87	CCCCCCc1cc2cc(/C(N)=N/NC(=O)c3ccncc3)c(=O)oc2cc1O	11
88	CC(=O)c1cccc(NC(=O)C2CCCN(S(=O)(=O)c3cccc4cccnc34)C2)c1 (stereo unspecified)	17
89	CCOc1ccc(C2CC(c3cccc(OC)c3)Nc3nc(N)nn32)cc1 (stereo unspecified)	8
90	CCC(Sc1nc2ncccc2[nH]1)C(=O)NCCc1ccccc1 (stereo unspecified)	-5
91	CC(C)=CCOc1ccc([C@@H]2COc3c(ccc4c3C=CC(C)(C)O4)C2)c(O)c1	0
92	CC(C)C[C@H](NC(=O)c1cc2cc(Cl)ccc2n1C)C(=O)N1CCC[C@H]1C(=O)O	9
93	COc1ccc(-c2noc(N3CCC(C(=O)Nc4cc(OC)ccc4OC)CC3)n2)cc1	7
94	CC(NC(=S)Nc1ccc(F)cc1)C(c1cccs1)N1CCOCC1 (stereo unspecified)	4
95	Cc1noc(NS(=O)(=O)c2ccc(NC(=O)c3cnc4scc(C)n4c3=O)cc2)c1C	4
96	COc1c2ccoc2cc2oc(C)cc(=O)c12	3
97	CC(C)[C@@H](C(=O)NCc1ccco1)N1C(=O)N2CCc3c([nH]c4ccccc34)[C@@]2(C)C1=O	7
98	Cc1noc(C)c1S(=O)(=O)NC1CCN(Cc2ccccc2)CC1	4
99	O=C(CSc1ccc(Cl)cc1)Nc1nnc(-c2cccc([N+](=O)[O-])c2)s1	3
100	COc1ccccc1CNC(=O)[C@H](C)N1C(=O)N2CCc3c([nH]c4ccccc34)[C@@]2(C)C1=O	7
101	O=C(CCc1ccccc1)n1nc(-c2ccco2)nc1SCc1ccccc1	17
102	Cc1c(CCC(=O)NCCCn2ccnc2)c(=O)oc2c(C)c3oc4c(c3cc12)CCCC4	3
103	CC1CCN(C(=O)CSc2nnc(Cc3ccccc3)o2)CC1	20
104	CC1=C(C(=O)NC2CCCCC2C)C2(CCC(C)CC2)OC1=O (stereo unspecified)	15
105	COc1c2n(C)ccc3c-2n(c(=O)c1=O)c1ccccc31	3
106	Cc1nn(C)c(C)c1S(=O)(=O)N1CCC(C(=O)NCC2COc3ccccc3O2)CC1 (stereo unspecified)	4
107	COCCn1c(SCC(=O)NCc2ccc3c(c2)OCO3)nnc1-c1c[nH]c2ccccc12	5
108	Cc1oc2c(C)c3oc(=O)c(CCC(=O)NCCCN4CCOCC4)c(C)c3cc2c1C	3
109	CCCc1cc(=O)oc2cc(OCC(=O)NCCc3c[nH]c4ccc(OC)cc34)ccc12	7
110	CC1CCc2nn(CC(=O)NCCCN3CCCCC3)cc2C1 (stereo unspecified)	11
111	Cc1ccc(NC(=O)C2CCN(S(=O)(=O)c3ccc4[nH]c(=O)ccc4c3)CC2)c(C)c1	17
112	CCOC(=O)c1cc(-c2nnc(-c3ccc(Cl)cc3)o2)c(C)nc1C	15
113	CCOC(=O)C(C)Oc1cccc2c(=O)n(CC(=O)N3CCc4ccccc43)ccc12 (stereo unspecified)	2
114	COc1ccc(NC(=O)CSc2nc3ccccc3nc2N2CCOCC2)cc1	2
115	CCn1c(C2CC(=O)N(c3ccc(C)c(C)c3)C2)nc2ccccc21 (stereo unspecified)	6
116	CC(=O)Oc1ccc2ccc(=O)oc2c1	5
117	Cc1cc(NC(=O)CSc2cn(C)c3ccccc23)no1	4
118	CC(C)c1ccc2c(c1)C(=O)NC(C)(C)C2	6
119	O=C(C(NS(=O)(=O)c1cccc2nsnc12)c1ccccc1)N1CCN(c2ccccc2)CC1 (stereo unspecified)	2
120	Cc1ccc(CCNC(=O)c2nnc(CS(=O)(=O)c3ccccc3)o2)cc1	-2

Reformatted: results already given.
55) O=CNc1ccccc1
  Hedgehog: 7

56) Cc1c(C(=O)OC2CCCC2C)[nH]c2c1C(=O)CCC2 (stereo unspecified)
  Hedgehog: 25

57) CCN1CCN(Cc2nc3c(c(=O)n(C)c(=O)n3C)n2CC(=O)c2ccccc2)CC1
  Hedgehog: 2

58) COc1ccc(NC(=O)C2CCCN(S(=O)(=O)c3cccc4cccnc34)C2)cc1OC (stereo unspecified)
  Hedgehog: 20

Additional compounds:
no.	compound	Hedgehog
121	COc1ccc(C(=O)Nc2nncs2)c(OC)c1	13
122	CCC(SC1=NCCS1)C(=O)Nc1nnc(-c2ccccc2OC)s1 (stereo unspecified)	-2
123	CCOC(=O)c1c(C)cc(O)cc1O	5
124	CCCCCCC(=O)O	9
